High-throughput results: PubChem, several laboratories
WNV NS2B-NS3 inh: inhibitors of WNV NS2B-NS3 protease, primary screen, biochemical, fluorogenic substrate | fluorogenic substrate Ex360/Em465; active compounds read low | z-score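 (tested at a level between 10 and 100 µM)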 | actives 0.18% (n = 65,000) | AID 577, 2007;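 active = z-score at -3 or under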;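 note: score is relative to mean and spread of the compound wells of a plate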
Target sequence (P06935 1371-1501 limits assumed): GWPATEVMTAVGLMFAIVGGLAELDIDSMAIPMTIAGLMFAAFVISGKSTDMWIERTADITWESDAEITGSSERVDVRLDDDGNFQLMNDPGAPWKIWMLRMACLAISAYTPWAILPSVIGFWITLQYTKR
Target sequence (P06935 1502-1679 limits assumed): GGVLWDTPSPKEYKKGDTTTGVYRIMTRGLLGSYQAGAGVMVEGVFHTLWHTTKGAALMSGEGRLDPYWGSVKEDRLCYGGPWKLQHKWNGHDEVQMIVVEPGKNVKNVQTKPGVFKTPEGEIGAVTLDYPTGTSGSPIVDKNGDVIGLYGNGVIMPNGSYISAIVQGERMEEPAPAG
Hsc70 ATP site: Hsc70 inhibitors, probe displacement, primary screen, biochemical, fluorescence polarization (AID 568). Heat shock cognate 71 kDa protein (Homo sapiens). Hsc70 fluorescence polarization, probe displacement; higher % means a stronger effect; strong numbers were not always called active. one-dose displacement, % at 20 µM; IC50 in µM for titrated hits. 83,000 tested, under 10 active;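 active = displacement above 50% without optical interference and an IC50 on retest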;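 note: ATPase domain with a fluorescein-tagged ATP probe; 0% = vehicle and 100% = excess ADP; read after one hour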
MT1-MMP promoter: inhibitors of MT1-MMP promoter transcription, cell-based, luciferase reporter, luminescence (AID 618); actives 0.62% (n = 87,000); MT1-MMP promoter luciferase reporter cells, luminescence; calls from a first round at 10 µM; hits with a dose series show EC50 in µM;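 active = over half of the reporter light lost at 10 µM or EC50 under 50 µM; inactive = the rest and hits that failed the dose series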;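 note: actives suppress MT1-MMP promoter-driven transcription so potencies describe inhibitors; HT1080 fibrosarcoma cells; overnight exposure; toxic or luciferase-blocking compounds were not removed from the actives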
Active calls of the source: *; i = inactive; · = no result given.

SMILES	WNV NS2B-NS3 inh	Hsc70 ATP site	MT1-MMP promoter
Cc1cc(=O)[nH]c(SCC(=O)N2CCCc3ccccc32)n1	·	2.2%	i
CCOC(=O)c1c(OCC)[nH]c2ccc(O)cc12	·	-6.0%	i
O=c1oc2ccccc2n1CCCCCn1c(=O)oc2ccccc21	-0.01	-2.2%	i
O=C(CSc1ccc2nnc(-c3ccc(F)cc3)n2n1)N1CCOCC1	0.16	-2.2%	i
O=S(=O)(Nc1ccc(Oc2ncccn2)c(Cl)c1)c1ccc(F)cc1	·	3.1%	i
COc1ccc(OC)c(-c2nc(C(N)=O)c3[nH]c(=O)n(-c4ccc(F)cc4)c3n2)c1	0.13	1.3%	i
CC(C)C(NC(=O)CSc1ccc(Cl)cc1)C(C)C	·	3.2%	i
CCn1c(SCC(=O)Nc2ccccc2N2CCOCC2)nnc1-c1ccccc1	1.1	-5.2%	i
COc1ccc(CCNC(=O)CSc2ncnc3c2oc2ccccc23)cc1OC	-1.6	-5.1%	i
CC1CN(C(=O)CCN2C(=O)c3ccccc3C2=O)CC(C)O1 (stereo not given)	·	3.4%	i
CCOC(=O)C1=C(O)C(=O)N(c2ccc(S(N)(=O)=O)cc2)C1c1ccccc1 (stereo not given)	-0.36	-4.0%	i
CSC1=C(C#N)C(CC(C)C)C2=C(CCCC2=O)N1 (stereo not given)	0.49	1.7%	i
O=C(Nc1ccc(-c2nnc(-c3ccco3)o2)cc1)C(c1ccccc1)c1ccccc1	·	0.3%	i
CC(C)Cn1c(SCC#N)nc2ccccc2c1=O	-0.52	3.2%	i
COCCN1C(=O)c2ccccc2C(C(=O)NCCN(C)C)C1c1ccc(F)cc1 (stereo not given)	-1.1	-4.9%	i
COc1ccc(S(=O)(=O)N2CCN(CC(=O)Nc3cccc(F)c3)CC2)cc1	1.1	-6.4%	i
CCN(CC)CC(=O)Nc1ccc(C)cc1Br	-0.23	2.0%	i
Cc1cc(=O)n(CC=C(Cl)Cl)c2ccccc12	-0.83	2.0%	i
Cn1c(=O)cc(N2CCCCC2)[nH]c1=O	-0.25	0.4%	i
O=C(CCN1C(=O)c2ccccc2C1=O)Nc1ccc(S(=O)(=O)NC2=NCCCCC2)cc1	0.89	0.3%	i
CCOC(=O)C1=C(N)OC2=C(C(=O)CC(C)(C)C2)C1c1ccccc1OCC#N (stereo not given)	0.15	-1.6%	i
O=C(NCc1ccco1)C(c1ccccc1)N(C(=O)Cc1cccs1)c1ccccc1 (stereo not given)	·	5.3%	i
O=C(CSc1ncn[nH]1)Nc1ccccc1Sc1ccc(Cl)cc1	·	6.3%	i
CCCOc1cccc(C2C(C(=O)c3ccco3)=C(O)C(=O)N2CCN(CC)CC)c1 (stereo not given)	-1.7	0.6%	i
C=CC[N+]1(CC#CCOC(c2ccccc2)c2ccccc2)CCOCC1	·	4.6%	i
COc1ccc(NC(=O)NC(C)c2ccncc2)cc1OC (stereo not given)	2	0.8%	i
CC(=O)Oc1ccc2oc(=O)c3c(c2c1)CCCN3C(=O)CN1CCN(c2ncccn2)CC1	-1.6	-4.9%	i
Cc1cc(NCCCn2ccnc2)n2nc(C)c(-c3ccccc3)c2n1	·	3.1%	i
NC(=O)C1CCN(C2CC(=O)N(c3ccc(F)c(Cl)c3)C2=O)CC1 (stereo not given)	·	-0.2%	i
CC(=O)c1cc2c(cc1NC(=O)c1cnc(C)cn1)OCO2	-0.81	-0.6%	i
CCc1cc(=O)oc2cc(C)cc(O)c12	-0.96	-1.0%	i
C/C(N)=C(/C#N)C(=O)CSc1nnc(COc2ccccc2Cl)o1	-0.53	-3.9%	i
N#Cc1c(-c2cccs2)cc(-c2ccccn2)nc1N	0.82	2.2%	i
O=S(=O)(Nc1cc(Cl)ccn1)c1ccc(Cl)cc1	·	-2.8%	i
Cc1cc(Oc2ccccc2)nc(SCC(=O)Nc2ccccc2)n1	·	-2.7%	i
CCCCn1c(SCC(N)=O)nnc1-c1cc(OC)c(OC)c(OC)c1	0.94	0.9%	i
OC(CN1C2=NCCN2c2ccccc21)c1ccccc1 (stereo not given)	0.48	6.0%	i
O=C(CN1CC(=O)Oc2ccccc21)NCc1ccco1	1.9	-3.0%	i
O=C(Nc1ccccc1C(=O)N1CCNCC1)c1ccco1	·	-3.1%	i
c1ccc(C(Cc2nc(-c3ccncc3)no2)c2ccccc2)cc1	-0.58	-0.3%	i
Cc1ccc(C(C#N)c2ccc3c(C(F)(F)F)cc(C(F)(F)F)nc3n2)cc1 (stereo not given)	·	-4.3%	i
O=C(c1cc2nc(-c3ccco3)cc(C(F)(F)F)n2n1)N1CCN(c2ccc(F)cc2)CC1	0.92	-8.0%	i
Cc1nnc(OCC(=O)NCCC2=CCCCC2)c2ccccc12	·	3.4%	i
CCc1ccc(CNC(=O)C2CCCN(c3nc4ccccc4o3)C2)cc1 (stereo not given)	·	-1.2%	i
O=C(NNC(=O)c1ccc(SCC2CCCO2)c([N+](=O)[O-])c1)c1ccc(Cl)c([N+](=O)[O-])c1 (stereo not given)	·	-2.3%	i
N#Cc1ccccc1OCCN1C(=O)c2ccccc2C1=O	0.24	4.1%	i
CCOC(=O)c1cccc(N2C(=O)c3ccccc3S2(=O)=O)c1	0.01	-2.8%	i
CCOC(=O)Nc1cc2c(cc1C(C)=O)OCO2	0.01	1.3%	i
CCN(CC)S(=O)(=O)c1cc(C(=O)OCC(=O)c2ccc3c(c2)NC(=O)CO3)ccc1F	-0.6	3.0%	i
CCn1c(SCC(=O)Nc2nc(C)c(C)s2)nnc1-c1ccco1	-0.49	-3.8%	i

Single entries from the list:
CCc1cc(=O)oc2cc(C)cc(O)c12 in Hsc70 ATP site reads -1.0%
Cc1cc(NCCCn2ccnc2)n2nc(C)c(-c3ccccc3)c2n1 in Hsc70 ATP site reads 3.1%
O=C(Nc1ccccc1C(=O)N1CCNCC1)c1ccco1 in Hsc70 ATP site reads -3.1%
CC(=O)c1cc2c(cc1NC(=O)c1cnc(C)cn1)OCO2 in WNV NS2B-NS3 inh reads -0.81

In a second layout: results already given
Values in the order – WNV NS2B-NS3 inh, Hsc70 ATP site, MT1-MMP promoter
- CCN(CC)CC(=O)Nc1ccc(C)cc1Br
  -0.23, 2.0%, i
- Cc1cc(=O)n(CC=C(Cl)Cl)c2ccccc12
  -0.83, 2.0%, i

Further entries follow.
SMILES	WNV NS2B-NS3 inh	Hsc70 ATP site	MT1-MMP promoter
CCOC(=O)c1ccccc1NS(=O)(=O)c1ccccc1F	-0.96	4.8%	i
Cc1cc(C)n(C(=O)CCCCCC(=O)n2nc(C)cc2C)n1	-0.01	0.4%	i
C/C=C/Cn1c(Br)nc2c1c(=O)n(C)c(=O)n2C	1.2	3.1%	i
COc1ccc(C(=O)/C=C/N2CCCCC2)cc1OC	-2	7.6%	i
COc1cc(C(O)P(=O)(OC2CCCCC2)c2ccc(N(C)C)cc2)cc(OC)c1OC (stereo not given)	-0.22	-6.7%	i
CCOC(=O)c1ccc(NC(=O)CCc2nc(-c3ccc(Cl)cc3)no2)cc1	0.98	-6.4%	i
O=C(O)C1CC(=O)N(c2ccc(OCc3ccccc3)cc2)C1 (stereo not given)	·	6.0%	i
COCCn1nnnc1C(CC(C)C)N1CCN(c2ccccc2)CC1 (stereo not given)	·	0.5%	i
CCN1CCCC1CN(Cc1cc2c(C)cc(C)cc2[nH]c1=O)C(=O)NC1CCCCC1 (stereo not given)	-1.5	-3.2%	i
CC(C)c1ccc(OCC(=O)NC(=S)Nc2ccc3c4c(cccc24)CC3)cc1	·	-7.1%	i
Cc1ccccc1-c1nc(CN2CCC(C(=O)NCc3ccco3)CC2)c(C)o1	0.45	4.0%	i
CCCCCn1c(CCCNC(=O)CC)nc2ccccc21	-0.33	8.6%	i
CC(C)(C)NCC(O)COc1ccccc1C(C)(C)C (stereo not given)	-0.79	-3.2%	i
CC(C)C(=O)NC(C)C(c1cccs1)N1CCOCC1 (stereo not given)	1.3	2.9%	i
COc1ccc(C)cc1NC(=O)c1cnc2scc(C)n2c1=O	-0.59	-2.4%	i
COc1ccccc1N1CCN(C(=O)CN(c2ccccc2OC)S(=O)(=O)c2ccccc2)CC1	-0.21	-3.6%	i
O=C(O)C1CC=CCC1C(=O)N1CCCC1 (stereo not given)	-0.9	-3.6%	i
O=C(Cc1ccccc1)NC1CCS(=O)(=O)C1 (stereo not given)	·	9.0%	i
Cc1cccc(NC(=O)CCCN2C(=O)c3ccccc3C2=O)n1	·	2.7%	i
Cn1c(=O)c2c(nc(NCc3ccc4c(c3)OCO4)n2Cc2ccc(F)cc2)n(C)c1=O	0.12	1.2%	i
Oc1[nH]c2ccccc2c1C=Nc1ccc2c(c1)OCO2	-0.7	0.1%	i
CCOCCCNC(=O)N1CCOCC1	0.89	5.1%	i
COc1ccccc1S(=O)(=O)Cc1ccc(C(=O)NCCN(C)C)o1	0.38	-0.4%	i
CC1(C)CC(=O)C(C(C#Cc2ccccc2)C2=C(O)CC(C)(C)CC2=O)=C(O)C1	·	-0.2%	i
Cc1cc(C(=O)COC(=O)c2ccc3c(c2)OCO3)c(C)n1Cc1cccs1	-1.4	-5.6%	i
Cc1ccc(C)c(Cn2nnc3c(=O)[nH]c(C4CCN(C(=O)c5cccs5)CC4)nc32)c1	-0.69	-9.2%	i
Cc1nnc(N2CCN(C)CC2)c2nn(-c3ccc(Cl)cc3)c(C)c12	·	0.3%	i
CCOc1ccc(N(CC)C(=O)COc2cc(=O)n(CC)c3ccccc23)cc1	·	5.4%	i
CC(CCc1ccccc1)NC(=O)c1ccncc1 (stereo not given)	-0.2	1.5%	i
O=C(CN1CCC(c2nc3ccccc3s2)CC1)NCc1cccs1	0.01	-2.6%	i
Cc1cccn2c(=O)c3cc(C(=O)NCc4ccco4)c(=N)n(C(C)C)c3nc12	-1	7.9%	i
CCC(C)NC(=O)NC1C(NC(=O)NC(C)CC)N(C)C(=O)N1C (stereo not given)	2.5	0.5%	i
COc1cc(C2C(C#N)=C(N)OC3=C2C(=O)CCC3)ccc1OC(=O)N1CCOCC1 (stereo not given)	-0.24	-2.6%	i
Cc1cc2ccccc2c(=O)n1CC(=O)N1CCN(c2cccc(Cl)c2)CC1	2.6	3.4%	i
C=CCn1c(NC(C)c2cc(Cl)ccc2O)nc2ccccc21 (stereo not given)	0.78	1.8%	i
Cc1ccc(S(=O)(=O)N(CC(=O)N2CCCCCC2)c2ccccc2)cc1	·	3.2%	i
COc1cccc(C(=O)N(CN2CCCC2=O)c2cccc(Cl)c2)c1OC	0.11	-5.1%	i
Cc1cc(C(=O)Nc2sc(C)c(C)c2C#N)no1	1.4	-10%	i
CCN(CC)C(=O)CCCOc1ccc(Cl)cc1Cl	1.8	-3.6%	i
O=P(O)(COc1ccccc1)COc1ccccc1	1.1	-8.2%	i
CCOC(=O)N1CCN(C(=O)CN(c2cc(Cl)ccc2OC)S(=O)(=O)c2ccccc2)CC1	-0.52	7.2%	i
O=C(Cn1ncc2c1-c1ccccc1OC2)Nc1ccc(Cl)cn1	0.09	2.0%	i
COc1ccccc1NS(=O)(=O)c1ccc(C(=O)OCC(=O)NCc2ccco2)cc1	1.5	-1.3%	i
O=C(CNS(=O)(=O)c1cccc2nsnc12)NCc1ccc(Cl)cc1	1.3	0.9%	i
O=S(=O)(NC1CCCC1)c1ccc(S(=O)(=O)N(Cc2cccs2)CC2CCCO2)cc1 (stereo not given)	-0.43	-1.6%	i
CC1=C(C#N)C(=O)NC(C)(C)C1	1.1	13%	i
COc1cccc(C(N)CC(=O)O)c1 (stereo not given)	0.56	-3.4%	i
COc1ccccc1NC(=O)CC1C(=O)NCCN1C(=O)Nc1ccccc1 (stereo not given)	·	0.2%	i
Fc1ccc(NC(=S)N2N=CCC2c2ccccc2)cc1 (stereo not given)	·	-1.3%	i
COC(=O)CCCC(=O)N1CCOCCN(C(=O)CCCC(=O)OC)CCOCC1	-0.19	-2.2%	i

Profiles as entered above. Values in the order: WNV NS2B-NS3 inh, Hsc70 ATP site, MT1-MMP promoter
`O=S(=O)(NC1CCCC1)c1ccc(S(=O)(=O)N(Cc2cccs2)CC2CCCO2)cc1` (stereo not given) is listed with -0.43, -1.6%, i
`COc1cc(C2C(C#N)=C(N)OC3=C2C(=O)CCC3)ccc1OC(=O)N1CCOCC1` (stereo not given) is listed with -0.24, -2.6%, i
`C=CCn1c(NC(C)c2cc(Cl)ccc2O)nc2ccccc21` (stereo not given) is listed with 0.78, 1.8%, i

Next results.
SMILES	WNV NS2B-NS3 inh	Hsc70 ATP site	MT1-MMP promoter
Cc1ccc(C)c(NC(=O)CSc2nnc(-c3ccncc3)n2N)c1	-1.3	-4.6%	i
Cc1ccc(O)c(C(=O)c2cnn(C(=O)Cc3csc(C)n3)c2)c1	2.9	6.2%	i
Nn1c(SCC(=O)N2CCCc3ccccc32)nnc1-c1ccccc1	1.4	0.4%	i
CN(C)C(CNC(=O)c1cccc(S(=O)(=O)N2CC3(C)CC2CC(C)(C)C3)c1)c1ccco1 (stereo not given)	1.6	-1.7%	i
CCOC(=O)c1sc(=S)n(-c2ccc(Cl)cc2)c1C	·	5.2%	i
